ALR inh = inhibitors of human ALR sulfhydryl oxidase, primary screen, biochemical, H2O2 detection, HRP-luminol luminescence, single point; FAD-linked sulfhydryl oxidase ALR (Homo sapiens), P55789; purified ALR, DTT oxidation; inhibition, % (no concentration beside the values); hit rate 3.8% among 290,000; AID 485317, 2010;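 active = mean and each replicate at 75% or more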;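 note: stock transfer was 7.5 nL into about 7.5 µL; 0% = neutral wells and 100% = wells with inactivated enzyme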
Target sequence (P55789 whole entry, looked up): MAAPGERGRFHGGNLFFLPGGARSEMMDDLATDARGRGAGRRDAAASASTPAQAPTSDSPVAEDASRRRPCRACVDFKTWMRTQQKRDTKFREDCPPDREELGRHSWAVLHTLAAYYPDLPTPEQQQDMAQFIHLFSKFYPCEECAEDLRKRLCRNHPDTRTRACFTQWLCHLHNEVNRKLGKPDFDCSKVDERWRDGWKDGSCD
rRNA inh HTS = reduced GFP signal of wild-type E. coli, primary screen, bacterial rRNA inhibitor project, GFP/RFP fluorescence, OD600, single point. E. coli WT GFP vs humanized-ribosome RFP mutants, 24 h; stronger effect = lower value; DMSO median 0, no signal -100. GFP signal change (wild-type ribosome), % (concentration not given with the values). hit rate 1.6% among 350,000. AID 720706, 2013;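 active = significant combined selectivity score with lowered wild-type GFP, culture density cut under 30%, mutant RFP and density less affected; inactive = any of these conditions unmet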; note: one replicate is shown; some compounds called inactive have numbers as strong as hits
Vif A3G = inhibitors of Vif binding to APOBEC3G peptide, primary screen, biochemical, TR-FRET, GST-Vif 1-94, biotin-A3G peptide, dose response retest (AID 1117319) | one-dose inhibition, %; IC50 in µM for titrated hits | TR-FRET GST-Vif / biotin-A3G peptide binding; higher % means a stronger effect; test concentration not given here; strong numbers were not always called active | hit rate 0.57% among 260,000 | Virion infectivity factor (Human immunodeficiency virus type 1 group M subtype B (isolate …;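 active = above the screen mean plus three standard deviations and confirmed in dose response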;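 note: Vif residues 1-94 fused to GST binding biotinylated APOBEC3G peptide 110-148; 0% = full assay without inhibitor and 100% = GST in place of GST-Vif; retest series ran down from 100 µM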
MLL AF4-AF9 inh = inhibitors of AF4 peptide binding to AF9, primary screen, biochemical, AlphaScreen, biotin-AF4 peptide, FLAG-AF9, single point | inhibition, % at 10 µM | hit rate 0.47% among 350,000 | AID 651704, 2012;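 active = every replicate reaching a set inhibition limit, whatever the replicate mean, cut at about 25% in these data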;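 note: 0% = plate neutral control median and 100% = total signal loss; the record names both 10 and 1 µM as test concentration; the first replicate is given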
FGF22 binding = binders of human FGF22 protein, primary screen, FGF22 synaptogenesis inhibitor project, biophysical, thermal shift, single point | calls only at 9.99 µM | recombinant FGF22 thermal shift, SYPRO orange fluorescence; percent of sucrose octasulfate shift, DMSO zero | AID 651658, 2012 | hit rate 1.5% among 340,000 | Fibroblast growth factor 22 (Homo sapiens), Q9HCT0;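 active = melting point raised past a set limit in the mean and every replicate; three in four hits are not shown here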
Target sequence (Q9HCT0 whole entry, looked up): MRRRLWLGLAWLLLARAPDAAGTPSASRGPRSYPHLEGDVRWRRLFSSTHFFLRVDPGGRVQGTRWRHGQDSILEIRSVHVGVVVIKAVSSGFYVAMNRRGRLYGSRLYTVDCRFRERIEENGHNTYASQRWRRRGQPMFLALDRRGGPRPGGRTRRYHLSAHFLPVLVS
HNF4A DNA FP = change in binding of human HNF4A to DNA, primary screen, biochemical, fluorescence polarization, FITC-DNA; AID 1224865, 2016; hit rate 0.3% among 360,000; activity change, % at 10 µM; 1 h; Hepatocyte nuclear factor 4-alpha (Homo sapiens), P41235; in the data active = activity change above about 30%, passing the limit was not always enough;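 note: controls were the assay level and a saturating level of protein; the project sought stronger binding though the title names inhibitors; some compounds called inactive have numbers as strong as hits; positive values seem to mean higher polarization but the record does not say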
Target sequence (P41235 whole entry, looked up): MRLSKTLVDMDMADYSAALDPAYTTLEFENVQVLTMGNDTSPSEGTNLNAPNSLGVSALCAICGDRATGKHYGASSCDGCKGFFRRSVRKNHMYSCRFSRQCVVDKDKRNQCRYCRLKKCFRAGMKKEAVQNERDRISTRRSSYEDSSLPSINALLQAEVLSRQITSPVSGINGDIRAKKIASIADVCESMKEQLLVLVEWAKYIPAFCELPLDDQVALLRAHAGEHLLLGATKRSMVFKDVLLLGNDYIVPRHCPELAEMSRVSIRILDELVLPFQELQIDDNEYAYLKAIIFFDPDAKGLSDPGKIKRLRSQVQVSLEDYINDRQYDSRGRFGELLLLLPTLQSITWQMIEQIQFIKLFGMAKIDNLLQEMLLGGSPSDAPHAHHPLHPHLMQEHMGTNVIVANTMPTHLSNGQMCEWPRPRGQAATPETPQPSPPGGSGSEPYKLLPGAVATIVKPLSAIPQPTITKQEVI
Ecoli growth = E. coli growth inhibition, primary screen, OD600; Escherichia coli growth, 23 h; stronger effect = lower value; AID 1053175, 2014; hit rate 0.21% among 330,000; OD600 absorbance (concentration not given with the values);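 active = OD600 absorbance below the run mean of sample wells minus 3.6 SD, in any replicate, cut at about 0.56 in these data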;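 note: stock transfer was 300 nL into about 60 µL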
rRNA inh HTS OD600 = second read-out of rRNA inh HTS, no call of its own (marks repeat the call); OD600 change, %; measured here: OD600 growth;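 optical density of the mix in the first replicate; 0 = DMSO median and -100 = no signal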
rRNA inh HTS RFP = further read-out of rRNA inh HTS, marked with its call; RFP signal change, %; measured here: RFP humanized mutant strains;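 first replicate; 0 = DMSO median and -100 = no signal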
* hit, by the source's call; & = joins results of further samples.

CC(NC(=O)c1ccccc1F)C(=O)O (configuration not stated) was read as ALR inh -2, Vif A3G -6%, HNF4A DNA FP 0.7 and Ecoli growth 0.72.
`O=C(NCCc1ccccn1)c1cc(C(=O)C2CCCCC2)c[nH]1` gave ALR inh -5, Vif A3G 5%, HNF4A DNA FP -3.2 and Ecoli growth 0.69.
For CN(C(=O)CNC(=O)c1ccc(Br)o1)C1CCCCC1 the results were ALR inh 0, rRNA inh HTS 6, MLL AF4-AF9 inh -0.5, FGF22 binding inactive, HNF4A DNA FP -3.7, Ecoli growth 0.72, rRNA inh HTS OD600 6 and rRNA inh HTS RFP -2.6.
`O=C(Nc1ccc(O)cc1C(=O)O)c1ccc2c(c1)C(=O)N(Cc1ccco1)C2=O` gave ALR inh 54, Vif A3G 21%, HNF4A DNA FP -5.3 and Ecoli growth 0.69.
For CCc1ccccc1Nc1nc(-c2cccnc2)cs1 the results were ALR inh -9, rRNA inh HTS -15, MLL AF4-AF9 inh 0.8, FGF22 binding inactive, HNF4A DNA FP 1.2, Ecoli growth 0.66, rRNA inh HTS OD600 -18 and rRNA inh HTS RFP -3.1.
C[C@H](CO)N1C[C@H](C)[C@@H](CN(C)Cc2ccncc2)Oc2c(NS(=O)(=O)c3cccs3)cccc2C1=O was read as ALR inh 4, rRNA inh HTS 3&7, MLL AF4-AF9 inh 0.7&-3.6, FGF22 binding inactive, HNF4A DNA FP -0.5, rRNA inh HTS OD600 -3&3 and rRNA inh HTS RFP -2.3&-3.5.
Cc1ccsc1C(=O)N1CCC(N2CCC(C(=O)NCC3CCCO3)CC2)CC1 (configuration not stated) was read as ALR inh -16, rRNA inh HTS 8, MLL AF4-AF9 inh -3.2, FGF22 binding inactive, HNF4A DNA FP 7.8, Ecoli growth 0.66, rRNA inh HTS OD600 -2 and rRNA inh HTS RFP 11.
`COc1ccc(N2CCN(c3nc(NCCc4ccc(OC)c(OC)c4)nc(OC)n3)CC2)cc1` gave ALR inh 23, Vif A3G 7%&-4%, HNF4A DNA FP 0.2 and Ecoli growth 0.69.
For O=C(O)c1cccc(NN=C2c3ccccc3-c3ccccc32)c1 the results were rRNA inh HTS -53*, Vif A3G -1%, MLL AF4-AF9 inh 2.0, FGF22 binding inactive, HNF4A DNA FP 2.1, Ecoli growth 0.72, rRNA inh HTS OD600 -39* and rRNA inh HTS RFP -15*.
COc1ccc([C@H]2CC(=O)C=C(/C=C/c3ccc(C(F)(F)F)cc3)C2)cc1 was read as ALR inh -2, rRNA inh HTS -4, MLL AF4-AF9 inh -0.8, FGF22 binding inactive, HNF4A DNA FP -1.9, rRNA inh HTS OD600 -6 and rRNA inh HTS RFP -9.6.
For CCOc1ccc(N(Cc2ccccc2F)C2=NC3CS(=O)(=O)CC3S2)cc1 (configuration not stated) the results were rRNA inh HTS -43, Vif A3G -2%, MLL AF4-AF9 inh -2.6, FGF22 binding inactive, HNF4A DNA FP -1.6, Ecoli growth 0.72, rRNA inh HTS OD600 -67 and rRNA inh HTS RFP -4.0.
`CC(=O)NC(c1ccc(F)c(F)c1)c1nc(-c2cnc3ccccc3c2)cs1` (configuration not stated) gave rRNA inh HTS 10, MLL AF4-AF9 inh -1.0, FGF22 binding inactive, HNF4A DNA FP 9.8, rRNA inh HTS OD600 16 and rRNA inh HTS RFP 3.3.
For COc1ccccc1NC(=O)CN(c1ccc(C23CC4CC(CC(C4)C2)C3)cc1)S(C)(=O)=O the results were ALR inh 0, Vif A3G -1%, HNF4A DNA FP -1.5 and Ecoli growth 0.66.
`O=C(CCc1nc(-c2ccccc2F)no1)NCCc1ccccc1Cl` gave ALR inh -12, Vif A3G 13%, HNF4A DNA FP 1.1 and Ecoli growth 0.73.
OC(CNCCC(c1ccccc1)c1ccccc1)COc1ccccc1 (configuration not stated) was read as ALR inh 0, rRNA inh HTS -56, Vif A3G 5%, MLL AF4-AF9 inh 5.4, HNF4A DNA FP 3.5, Ecoli growth 0.65, rRNA inh HTS OD600 -83 and rRNA inh HTS RFP -26.
For CCc1nnc(NC(=O)CCC(=O)N2CCN(CCc3ccccc3)CC2)s1 the results were ALR inh 7, Vif A3G 2%&29%, HNF4A DNA FP -2.6 and Ecoli growth 0.67.
COc1ccc(NC(C)=O)cc1NC(=O)CSc1nnc(-c2cccnc2)n1C was read as ALR inh -17, Vif A3G 13%, HNF4A DNA FP -1.6 and Ecoli growth 0.65.
`O=C(O)c1ccc(NC(=S)NC(NC(=O)c2ccco2)C(Cl)(Cl)Cl)cc1` (configuration not stated) gave ALR inh 12, Vif A3G 2%, HNF4A DNA FP 4.5 and Ecoli growth 0.72.
Screening N#C/C(=C\c1ccccc1Br)C(=O)NC1CC1 returned ALR inh 42, rRNA inh HTS 7, MLL AF4-AF9 inh 0.8, FGF22 binding inactive, HNF4A DNA FP -2.7, Ecoli growth 0.74, rRNA inh HTS OD600 0 and rRNA inh HTS RFP -0.3.
For Cc1cc(C)n(CCc2nc(-c3ccc(-c4ccccc4)cc3)cs2)n1 the results were ALR inh -9, rRNA inh HTS 1, Vif A3G -11%, MLL AF4-AF9 inh 1.3, FGF22 binding inactive, HNF4A DNA FP -1.9, Ecoli growth 0.69, rRNA inh HTS OD600 4 and rRNA inh HTS RFP -0.3.
C[C@@H]1CCCCO[C@@H](CN(C)C(=O)NC2CCCCC2)[C@@H](C)CN([C@@H](C)CO)C(=O)c2cc(NC(=O)c3ccccc3)ccc2O1 was read as rRNA inh HTS -1, MLL AF4-AF9 inh 0.0, FGF22 binding inactive, rRNA inh HTS OD600 -9 and rRNA inh HTS RFP -1.7.
`COc1ccccc1-c1c(C#N)c(N)nc2c1CCc1ccccc1-2` gave ALR inh -133, HNF4A DNA FP 7.3 and Ecoli growth 0.69.
For C/C=C/c1ccc([C@H]2[C@@H](CO)N(C(C)=O)C23CN(C(=O)c2ccncc2)C3)cc1 the results were rRNA inh HTS 0, MLL AF4-AF9 inh 4.2, FGF22 binding inactive, rRNA inh HTS OD600 7 and rRNA inh HTS RFP 0.8.
For O=C(NCc1cn(-c2ccccc2)nc1-c1ccccc1)c1ccc([N+](=O)[O-])cc1 the results were ALR inh -3, rRNA inh HTS 5, MLL AF4-AF9 inh 0.2, FGF22 binding inactive, HNF4A DNA FP -0.1, Ecoli growth 0.71, rRNA inh HTS OD600 0 and rRNA inh HTS RFP 2.2.

Sorted by length of the SMILES (highest first): part of the list above
For O=C(NCc1cn(-c2ccccc2)nc1-c1ccccc1)c1ccc([N+](=O)[O-])cc1 the results were ALR inh -3, rRNA inh HTS 5, MLL AF4-AF9 inh 0.2, FGF22 binding inactive, HNF4A DNA FP -0.1, Ecoli growth 0.71, rRNA inh HTS OD600 0 and rRNA inh HTS RFP 2.2.
`O=C(O)c1ccc(NC(=S)NC(NC(=O)c2ccco2)C(Cl)(Cl)Cl)cc1` (configuration not stated) gave ALR inh 12, Vif A3G 2%, HNF4A DNA FP 4.5 and Ecoli growth 0.72.
COc1ccc(NC(C)=O)cc1NC(=O)CSc1nnc(-c2cccnc2)n1C was read as ALR inh -17, Vif A3G 13%, HNF4A DNA FP -1.6 and Ecoli growth 0.65.
OC(CNCCC(c1ccccc1)c1ccccc1)COc1ccccc1 (configuration not stated) was read as ALR inh 0, rRNA inh HTS -56, Vif A3G 5%, MLL AF4-AF9 inh 5.4, HNF4A DNA FP 3.5, Ecoli growth 0.65, rRNA inh HTS OD600 -83 and rRNA inh HTS RFP -26.
Screening N#C/C(=C\c1ccccc1Br)C(=O)NC1CC1 returned ALR inh 42, rRNA inh HTS 7, MLL AF4-AF9 inh 0.8, FGF22 binding inactive, HNF4A DNA FP -2.7, Ecoli growth 0.74, rRNA inh HTS OD600 0 and rRNA inh HTS RFP -0.3.

(further entries)
Cc1ccc(NC(=O)CSc2nnc(-c3cccnc3)n2CCN2CCCCC2)cc1 was read as ALR inh -6, Vif A3G 6%, HNF4A DNA FP -1.5 and Ecoli growth 0.7.
`CC(C)(C)NC(=O)CN(C(=O)CS(=O)CC(=O)Nc1ccc(F)cc1)c1cccc(F)c1` (configuration not stated) gave ALR inh -2, rRNA inh HTS 8, MLL AF4-AF9 inh -7.9, FGF22 binding inactive, HNF4A DNA FP -0.4, Ecoli growth 0.7, rRNA inh HTS OD600 2 and rRNA inh HTS RFP 1.0.
For Cn1cc(S(=O)(=O)Cc2ccc(F)cc2)c2ccccc21 the results were ALR inh 0, rRNA inh HTS -2, MLL AF4-AF9 inh 3.3, FGF22 binding inactive, HNF4A DNA FP 2.4, Ecoli growth 0.69, rRNA inh HTS OD600 8 and rRNA inh HTS RFP -2.3.
For Cc1cc(C)n2nc(CC(=O)NC3CCCC(C)C3C)nc2n1 (configuration not stated) the results were ALR inh 2, rRNA inh HTS 3, Vif A3G 5%, MLL AF4-AF9 inh -28, FGF22 binding inactive, HNF4A DNA FP 2.4, Ecoli growth 0.74, rRNA inh HTS OD600 2 and rRNA inh HTS RFP -5.7.
For CN(c1ccccc1)S(=O)(=O)c1cccc(NC(=O)Cc2c(F)cccc2Cl)c1 the results were ALR inh -4, Vif A3G 29%, HNF4A DNA FP -1.2 and Ecoli growth 0.69.
COc1ccc(S(=O)(=O)N(C)CC(=O)Nc2cccc(C(C)=O)c2)cc1C was read as ALR inh -8, Vif A3G 8%, HNF4A DNA FP -5.2 and Ecoli growth 0.68.
Screening CCc1nonc1NC(=O)COc1ccc(Cl)c(C)c1 returned ALR inh -3, rRNA inh HTS -31, Vif A3G 7%, MLL AF4-AF9 inh -1.0, FGF22 binding inactive, HNF4A DNA FP 4.5, Ecoli growth 0.67, rRNA inh HTS OD600 -13 and rRNA inh HTS RFP -5.6.
For CCn1c(SCC(=O)Nc2ccc3c(c2)OCO3)nnc1-c1cnccn1 the results were ALR inh -48, Vif A3G 20%, HNF4A DNA FP -0.8 and Ecoli growth 0.7.
`Cc1ccc(NC(=S)NCCc2ccc(S(N)(=O)=O)cc2)cc1C` gave ALR inh 19, Vif A3G 2%, HNF4A DNA FP 2.7 and Ecoli growth 0.65.
COc1ccc(NC(=O)c2ccc3c(c2)C(=O)N(Cc2ccncc2)C3=O)cc1S(N)(=O)=O was read as ALR inh -4, rRNA inh HTS 11, Vif A3G -2%, MLL AF4-AF9 inh -2.3, FGF22 binding inactive, HNF4A DNA FP 2.2, Ecoli growth 0.63, rRNA inh HTS OD600 32 and rRNA inh HTS RFP -1.1.
For O=C(COc1ccccc1)NCC(=O)Nc1cccc(S(=O)(=O)NC2=NCCC2)c1 the results were ALR inh 1, rRNA inh HTS 19, Vif A3G 2%, MLL AF4-AF9 inh -7.7, FGF22 binding inactive, HNF4A DNA FP 0.9, Ecoli growth 0.7, rRNA inh HTS OD600 16 and rRNA inh HTS RFP 6.0.
Screening CCCCOc1cccc(C(=O)NC(=S)Nc2cccc(C(F)(F)F)c2)c1 returned ALR inh -6, Vif A3G -10%, HNF4A DNA FP 4.4 and Ecoli growth 0.73.
For O=C(C[C@H]1CC[C@H]2[C@@H](COC[C@H](O)CN2Cc2nccs2)O1)NCc1ccccc1F the results were rRNA inh HTS -1, MLL AF4-AF9 inh 0.4, FGF22 binding active, rRNA inh HTS OD600 3 and rRNA inh HTS RFP 5.8.

Source: PubChem

Not all compounds are listed. The share of hits here may be higher or lower than overall.
